# FGF22 binding: FGF22 (human) thermal shift binding; calls only at 9.99 µM; 340,000 tested, 1.5% active; Q9HCT0; AID 651658; recombinant FGF22 thermal shift, SYPRO orange fluorescence; percent of sucrose octasulfate shift, DMSO zero;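 active means melting point raised past a set limit in the mean and every replicate; inconclusive means no clear call; three in four hits are not shown here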
# Target sequence (Q9HCT0 whole entry, looked up): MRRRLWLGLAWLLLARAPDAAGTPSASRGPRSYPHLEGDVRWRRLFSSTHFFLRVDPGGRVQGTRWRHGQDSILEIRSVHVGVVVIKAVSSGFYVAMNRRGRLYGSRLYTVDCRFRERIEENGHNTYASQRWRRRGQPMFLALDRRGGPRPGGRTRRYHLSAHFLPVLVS
# T cruzi repl: blocks replication of Trypanosoma cruzi | 300,000 tested, 1.4% active | T. cruzi beta-gal in NIH3T3, luminescence, 90 h | inhibition, % (test concentration not listed) | AID 1885;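 active means mean inhibition across valid replicates above about 55%, limit read from the data; inconclusive means mean below that limit but half or more replicates reach it; inactive means mean below it, under half of replicates reach it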;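 further: signal also drops with host cell toxicity which is not excluded here; 0% = plate median of DMSO wells and 100% = zero luminescence signal; higher percent means less beta-gal luminescence so fewer parasites; stock transfer was 50 nL into about 50 µL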
# ALR inh: blocks human ALR sulfhydryl oxidase activity | 290,000 tested, 3.8% active | purified ALR, DTT oxidation, H2O2 HRP-luminol luminescence | inhibition, % (concentration not given with the values) | AID 485317;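 active means mean and each replicate at 75% or more; inconclusive means only one of the two met; inactive means neither met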;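 further: stock transfer was 7.5 nL into about 7.5 µL; 0% = neutral wells and 100% = wells with inactivated enzyme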
# Target sequence (P55789 whole entry, looked up): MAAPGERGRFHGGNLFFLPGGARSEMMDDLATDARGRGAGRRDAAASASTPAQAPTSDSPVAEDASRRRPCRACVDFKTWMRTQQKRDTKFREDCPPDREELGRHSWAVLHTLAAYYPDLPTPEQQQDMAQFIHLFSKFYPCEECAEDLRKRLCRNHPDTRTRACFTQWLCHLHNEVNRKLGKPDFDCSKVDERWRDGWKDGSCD
# MLL AF4-AF9 inh: blocks AF4 peptide binding to human AF9; P42568; AlphaScreen, biotin-AF4 peptide binding to FLAG-AF9; inhibition, % at 10 µM; 350,000 tested, 0.47% active; AID 651704;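 active means every replicate reaching a set inhibition limit, whatever the replicate mean, cut at about 25% in these data; inconclusive means mean inhibition reaches that limit but some replicates miss it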;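 further: 0% = plate neutral control median and 100% = total signal loss; the record names both 10 and 1 µM as test concentration; the first replicate is given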
# Target sequence (P42568 whole entry, looked up): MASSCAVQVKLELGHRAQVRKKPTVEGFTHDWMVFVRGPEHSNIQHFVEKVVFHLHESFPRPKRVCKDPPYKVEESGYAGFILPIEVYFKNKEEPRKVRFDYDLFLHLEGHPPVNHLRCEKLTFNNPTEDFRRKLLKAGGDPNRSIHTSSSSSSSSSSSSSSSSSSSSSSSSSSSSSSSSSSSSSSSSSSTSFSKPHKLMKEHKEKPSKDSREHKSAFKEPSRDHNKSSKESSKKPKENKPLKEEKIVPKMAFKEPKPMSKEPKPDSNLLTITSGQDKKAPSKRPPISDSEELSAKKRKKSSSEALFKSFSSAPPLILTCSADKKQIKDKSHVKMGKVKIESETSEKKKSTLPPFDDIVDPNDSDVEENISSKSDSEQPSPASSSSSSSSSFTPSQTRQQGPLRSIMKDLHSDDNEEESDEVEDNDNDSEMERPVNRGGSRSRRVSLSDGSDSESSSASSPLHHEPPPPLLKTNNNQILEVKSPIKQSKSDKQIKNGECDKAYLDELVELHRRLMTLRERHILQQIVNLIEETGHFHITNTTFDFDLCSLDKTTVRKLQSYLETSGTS
# RanGTP-Impb inh: inhibitors of RanGTP-importin-beta interaction, primary screen, biochemical, FRET, CFP-Ran, YFP-importin-beta, homogeneous | 300,000 tested, 1.1% active | inhibition, % (test concentration not listed) | cell-free CFP-Ran/YFP-importin-beta FRET ratio;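 active means most replicates above 15%; inconclusive means exactly half above 15%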;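 further: 0% = DMSO wells and 100% = Ran loaded with GDP instead of GTP; wells of about 40 µL received 100 nL stock; the first replicate is given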
# Beta cell apopt: beta cell apoptosis inhibition | INS-1E cytokine-induced death, ATP luminescence, 48 h; percent of positive-control rescue, neutral wells zero | protection from apoptosis, % (no concentration beside the values) | 300,000 tested, 0.8% active | AID 435005;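 active means all replicates at 75% or more, or half of them and the mean; inconclusive means half reach 75% but not the mean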;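 further: 0% = cytokine-treated negative control wells and 100% = positive control rescue; higher means more ATP so stronger rescue from cytokine killing; wells of about 40 µL received 100 nL stock; the first replicate is given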
# rRNA inh HTS: inhibitors of bacterial rRNA selective over humanized ribosomes | E. coli WT GFP vs humanized-ribosome RFP mutants, fluorescence, 24 h; hits give low values; DMSO median 0, no signal -100 | GFP signal change (wild-type ribosome), % (test concentration not listed) | 350,000 tested, 1.6% active | AID 720706;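 active means significant combined selectivity score with lowered wild-type GFP, culture density cut under 30%, mutant RFP and density less affected; inactive means any of these conditions unmet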; further: one replicate is shown; some compounds called inactive have numbers as strong as hits
# Calb FLC: C. albicans growth modulation with fluconazole | C. albicans CaCi-2 (fluconazole-resistant clinical isolate) + fluconazole, Alamar Blue growth, 48 h | growth inhibition, % (concentration not given with the values) | 300,000 tested, 0.57% active;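 active means most replicates above 75%; inconclusive means exactly half above 75%; inactive means most below 75%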;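 further: all wells also contain fluconazole at 8 µg/ml as a sub-toxic cotreatment; 0% = median of DMSO wells and 100% = median of geldanamycin control wells; wells of about 8 µL received 7.5 nL stock; the first replicate is given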
# rRNA inh HTS OD600: also measured in rRNA inh HTS; calls as there; OD600 change, %; measured here: OD600 growth;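 optical density of the mix in the first replicate; 0 = DMSO median and -100 = no signal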
# rRNA inh HTS RFP: second read-out of rRNA inh HTS, no call of its own (marks repeat the call); RFP signal change, %; measured here: RFP humanized mutant strains;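 first replicate; 0 = DMSO median and -100 = no signal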
# Active calls of the source: *; i = inactive; ? = inconclusive; · = no result given.
SMILES,FGF22 binding,T cruzi repl,ALR inh,MLL AF4-AF9 inh,RanGTP-Impb inh,Beta cell apopt,rRNA inh HTS,rRNA inh HTS OD600,rRNA inh HTS RFP,Calb FLC
CCc1c(C)sc(NC(=O)c2ccoc2C)c1C(N)=O,i,2,2,-2.5,-2.6,-1,2,5,0.8,-4
CC(C)Cn1c(SCC(=O)c2c(N)n(C)c(=O)n(C)c2=O)nc2ccccc21,·,1,-6,·,-0.6,-4,·,·,·,-3
COC(=O)C1=C(C(=O)OC)[C@]2([C@H]3CCCCN[C@@H](Cc4ccccc4)C(=O)N3Cc3ccccc3)C=C[C@H]1O2,i,·,-4,4.0,·,26,-3,-1,-11,·
CS(=O)(=O)Nc1ccc(-c2nnc3n2CCCCC3)cc1,i,-1,-2,-1.5,-3.4,-2,10,20,-2.5,4
COc1ccc(-c2c(C#N)c(N)nc3c2CCc2ccccc2-3)cc1OC,·,-14,-5,·,4.1,68,·,·,·,?
CCN(CC)S(=O)(=O)c1ccc(OCC(=O)NC2CCS(=O)(=O)C2)c([N+](=O)[O-])c1 (centres undefined),·,-7,-2,-0.1,-2.0,-6,19,20,0.2,0
CC1=CCC2C(=O)N(c3ccc(OC(=O)c4ccco4)cc3)C(=O)C2C1 (centres undefined),i,7,-16,-0.5,-1.3,-1,2,0,-0.8,-4
O=C(Cc1ccc(Cl)cc1Cl)Nc1ccc(OC(F)F)c(Cl)c1,·,36,-10,·,3.1,-3,·,·,·,-2
Cc1ccc(S(=O)(=O)CC(=O)NCc2ccccc2)cc1,i,-15,-2,0.2,0.9,-10,3,3,2.7,-16
Cc1nnc(NC(=O)CSc2ccc(-c3ccccn3)nn2)s1,·,1,0,·,2.6,-6,·,·,·,-3
COc1ccc(S(=O)(=O)N2CCCN(S(=O)(=O)c3ccc(OC)c(C)c3)CC2)cc1C,i,49,-3,8.1,0.5,-15,-8,-6,3.9,-7
Cc1ccc2cc(C#N)c(NCCCNC(=O)C3CCCO3)nc2c1 (centres undefined),·,2,-8,·,5.8,3,·,·,·,?
CN(C)/C=C/C(=O)c1ccccc1,i,-5,·,-8.3,7.2,-3,6,3,0.2,-5
C[C@@H](C(=O)NNC(=O)c1ccc(Cl)cc1)N1C(=O)C2CC=CCC2C1=O (some centres undefined),i,·,0,-0.7,·,0,4,6,-1.8,·
O=C1CCC(C(=O)OCc2nnc(-c3ccccc3)o2)=NN1,i,0,3,-9.0,2.2,5,3,2,-0.7,0
CC(=O)c1ccc(N2CCN(S(=O)(=O)c3ccc(-c4cc(C)no4)s3)CC2)cc1,i,-6,-1,-2.8,-1.2,-4,4,9,-2.1,35
N#C/C(=C\c1c[nH]c2ccc(Br)cc12)c1ccccn1,i,2,-12,-0.9,5.0,12,6,12,2.8,11
O=Cc1cccn1Cc1ccc(Cl)cc1Cl,·,3,-12,·,3.6,5,·,·,·,-8
CCCCOC(=O)c1ccc(NC(=O)c2cc(Cl)ccc2OC)cc1,·,15,-5,·,-2.2,0,·,·,·,4
Oc1ccc(Br)cc1CN1CCCCCCC1,·,6,99*,·,?,-2,·,·,·,-15
Nc1c(CO)nnn1-c1ccccc1,·,-2,-1,·,6.1,-5,·,·,·,-14
Cc1ccc(NC(=O)CN(C)C(=O)c2ccc(C(F)(F)F)cc2)cc1,i,-27,-2,0.3,-2.2,-1,14,15,-0.1,8
Cc1ccccc1-c1nc(CS(=O)CC(=O)NC2CCCC2)c(C)o1 (centres undefined),i,9,99*,-2.4,0.8,-5,-1,0,2.3,-2
CCOc1cc(NC(=S)NCC(C)C)c(OCC)cc1NC(=O)c1ccco1,·,35,-11,·,-0.8,0,·,·,·,-5
Cc1cccc(C(=O)NNC(=O)C2CCN(C(=O)OC(C)(C)C)CC2)c1,i,-4,-3,-0.3,-3.8,-4,0,2,-2.3,-16
COc1ccc(C(NC(C)=O)c2cc(Cl)c3cccnc3c2O)cc1OC (centres undefined),·,57*,-18,-3.8,1.1,95*,14,15,4.5,-27
O=C1OCC(c2ccc(Cl)s2)=C1c1ccccc1[N+](=O)[O-],i,4,-3,6.9,-1.6,2,-6,-9,-11,11
CCN1CCN(c2ccc(NC(=O)c3ccc(OC)c(S(=O)(=O)N4CCCC4)c3)cc2)CC1,i,·,-1,4.7,·,-1,13,10,-0.5,·
O=C(COc1ccc(Cl)cc1Cl)NNC(=S)Nc1ccc(F)cc1,i,-7,65,-19,1.9,-4,-55,-76,-34,29
COc1ccc(C(=O)Nc2ccc(F)cc2F)cc1,i,-30,-1,-10,?,4,10,7,6.7,-5
COc1cc(NC(=O)C2CCCN(S(=O)(=O)c3cccc4nsnc34)C2)cc(OC)c1 (centres undefined),·,-9,-36,·,2.8,2,·,·,·,-8
CCOC(=O)C1(Cc2cccc(OC)c2)CCN(Cc2cccc(OCC)c2O)CC1,·,1,12,2.9,8.4,-1,-23,-65,-1.4,-5
NC(=S)NNc1c(F)c(F)c(F)c(F)c1F,i,-4,98*,-0.5,0.0,0,-26*,-7.0*,7.6*,34
O=C1CN(C(=S)NC(=O)c2ccccc2[N+](=O)[O-])CCN1,i,-35,1,-2.1,-1.9,4,23,17,6.3,7
Cc1[nH]cnc1C(=O)N/N=C/c1ccc([N+](=O)[O-])s1,i,57*,-20,2.0,0.5,12,-57,-67,-9.7,13
C=CCNCCCCOc1cccc(Br)c1,·,14,-4,·,-4.3,-13,·,·,·,?
O=C(NCc1ccncc1)Nc1cc(Cl)ccc1Cl,i,-5,-14,-0.3,-4.0,1,8,-9,-4.3,6
OC(c1ccc(Cl)cc1)c1nnc(-c2ccccc2)o1 (centres undefined),·,-6,1,·,0.1,11,·,·,·,·
COc1ccc(C(=O)NC(=S)NNC(=O)CCc2ccccc2)cc1,i,-8,25,2.1,?,11,-18,-10,11,114*
CCCc1noc2c1/C(=N\O)CC(c1ccccc1)C2 (centres undefined),·,-4,-8,·,0.2,4,·,·,·,-10
O=C(O)CNC(=O)CCn1nnc2ccccc2c1=O,·,0,-2,·,-1.6,-5,12,0,-6.8,-1
O=C(NNC(=O)c1ccccc1F)c1ccc(Cl)c(S(=O)(=O)N2CCOCC2)c1,i,·,-4,-1.9,·,-2,·,·,·,·
O=C(Nc1cccc(S(=O)(=O)N2CCCCC2)c1)c1ccc2ccccc2n1,·,17,-9,·,-1.5,-4,·,·,·,11
Cc1cc(-c2ccccc2)nc2c(Br)c(=O)[nH]n12,i,-13,25,-4.5,1.1,0,-14,-6,4.7,26
Fc1cccc(-n2c(-c3cccs3)nc3nc4ccccc4nc32)c1,·,18,9,·,-9.3,3,·,·,·,-4
CCOc1ccc(N(CC(=O)Nc2ccccc2F)S(=O)(=O)c2c(C)[nH]c(=O)[nH]c2=O)cc1,i,-10,-2,-1.8,4.1,-1,-2,-1,1.6,1
CS(=O)(=O)c1ccc2nc(NC(NC(=O)c3ccco3)(C(F)(F)F)C(F)(F)F)sc2c1,·,-7,·,·,2.4,7,·,·,·,14
CC(=O)c1c(C)[nH]c(C(=O)Nc2ccc(Cl)cc2F)c1C,i,13,1,1.5,-3.7,8,12,6,-0.6,-4
COc1ccccc1OCCC(=O)OCC(=O)NC(=O)NC(C)(C)C,·,2,-14,·,-1.6,4,·,·,·,1
COc1ccc(S(=O)(=O)Nc2c(C)n(C)n(-c3ccccc3)c2=O)cc1Br,i,-4,-1,0.9,-3.6,-5,-2,2,1.3,12
CCOc1ccc(NC(=O)N(CCN(C)C)C(C)c2ccncc2)cc1 (centres undefined),i,-1,·,-1.9,-0.8,-3,9,13,-2.1,-5
COCCC(=O)N1CCC(Oc2ccc(C(=O)NC3CCCCC3)cc2)CC1,i,-2,-2,5.8,-2.2,1,3,3,-0.5,-5
CCN(CC)CCCNC(=O)c1cc2c(-c3cccc(OC)c3)nn(C)c2s1,i,48,3,4.2,-1.4,2,0,-4,4.5,-2
COc1ccc(-c2nnnn2C)cc1S(=O)(=O)NCCc1ccccc1,·,-2,-11,·,5.3,1,·,·,·,-15
O=C(NCc1ccc(F)cc1)c1cccc2c1C(=O)N(Cc1cccnc1)C2,i,27,0,0.3,-3.5,-3,1,10,6.0,6
Cc1c(NC(=S)N/N=C/C=C/c2ccc([N+](=O)[O-])cc2)c(=O)n(-c2ccccc2)n1C,i,-2,27,-6.3,3.1,7,-1,3,-7.8,2
CCCCn1c(N)c(N(CC(C)C)C(=O)CC2OC(=O)c3ccccc32)c(=O)[nH]c1=O (centres undefined),i,-6,-8,0.5,0.6,-3,10,10,-1.3,1
Cc1[nH]c2ccccc2c1CCO,·,-4,-15,·,5.5,-9,·,·,·,-1
ClCc1ncc(-c2ccc(Cl)cc2)o1,i,-21,11,1.0,3.2,-1,8,11,-1.1,-19
Cc1ccccc1S(=O)(=O)Nc1ncnc2ccccc12,i,11,-1,-3.1,0.2,-5,5,-1,-1.5,-1

# Reprinted at random: 2 compounds from above.
SMILES,FGF22 binding,T cruzi repl,ALR inh,MLL AF4-AF9 inh,RanGTP-Impb inh,Beta cell apopt,rRNA inh HTS,rRNA inh HTS OD600,rRNA inh HTS RFP,Calb FLC
COc1ccccc1OCCC(=O)OCC(=O)NC(=O)NC(C)(C)C,·,2,-14,·,-1.6,4,·,·,·,1
COc1ccc(-c2nnnn2C)cc1S(=O)(=O)NCCc1ccccc1,·,-2,-11,·,5.3,1,·,·,·,-15

# Remaining list, next part:
SMILES,FGF22 binding,T cruzi repl,ALR inh,MLL AF4-AF9 inh,RanGTP-Impb inh,Beta cell apopt,rRNA inh HTS,rRNA inh HTS OD600,rRNA inh HTS RFP,Calb FLC
CC(=O)c1ccc(-c2ccc(C(=O)Nc3nc(C)c(C(C)=O)s3)o2)cc1,i,·,0,0.3,·,5,-3,10,-2.6,·
CC(=O)c1sc(NC(=O)CCS(=O)(=O)c2ccc(Cl)cc2)nc1C,i,31,-19,-2.8,2.1,-46,1,-3,-1.8,0
CCN(CC)CCNC(=O)c1ccc2c(=O)n(C3CCCC3)c(=S)[nH]c2c1,·,-2,0,·,4.2,4,·,·,·,8
CCCCCN(C(=O)NC(=O)Nc1nncs1)S(C)(=O)=O,·,-7,-1,·,-2.4,·,·,·,·,1
COc1ccc(NS(=O)(=O)c2cccc(C(=O)NN=Cc3ccc(OC)cc3OC)c2)cc1,i,·,-10,-2.1,·,-9,-2,6,3.7,·
Cc1cccc(-c2noc(-c3ccc(Cl)cc3[N+](=O)[O-])n2)c1,·,16,-30,·,-1.5,1,·,·,·,6
CC(NC(=O)Nc1ccc(Cl)cc1)c1ccc2c(c1)OCO2 (centres undefined),i,-2,3,-1.3,7.3,-4,-36,-58,8.8,-18
O=C(NC(=S)NN1CCOCC1)c1cc(Br)ccc1Cl,i,·,36,-8.4,·,-3,-1,5,-1.1,·
COc1cccc(CNC(=O)CN2c3cccc4cccc(c34)S2(=O)=O)c1,i,3,-35,3.5,2.0,-2,-37*,-20*,9.5*,3
Cc1ccc(NC(=O)CNCc2cccs2)cc1Br,i,-7,-8,-0.1,2.9,-6,-28,-28,-5.0,5
O=C(NCc1cccnc1)Nc1ccc(Br)cc1Cl,i,24,1,-1.1,3.1,1,-20,-24,-9.3,2
CC(=O)Nc1ccc(NC(=O)CCOc2cc(C)ccc2C)cc1,i,-16,8,-0.8,4.6,·,9,11,1.9,-4

# A portion of the library; rates above refer to the full screens.
